Arbovirus anti: antivirals against arbovirus infection, primary screen, cell-based, full library, 10K replicate subset; arbovirus infection cell-based antiviral screen; inhibition, % at 10 µM; 0.37% of 200,000 active;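 active = inhibition from about 30%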;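 also: bluetongue infection of BSR cells; cell survival read as ATP light after 72 h; 0% = infected wells without compound and 100% = uninfected wells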
YopH inh: YopH tyrosine phosphatase inhibitors, primary screen, biochemical, fluorescence Ex485/Em525; inhibition, %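 (about 10 µM by stock and volumes)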; 0.16% of 140,000 active;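 active = inhibition of 50% or more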;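 also: controls were vehicle for no effect and minimum signal wells for full effect; inactives centre near -20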
RecA splice inh: Mtb RecA intein splicing inhibitors, primary screen, biochemical, fluorescence, HTS; Protein RecA (Mycobacterium tuberculosis (strain ATCC 25618 / H37Rv)), P9WHJ3; cell-free RecA intein splicing; inhibition, %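 (about 9 µM by stock and volumes)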; 0.75% of 290,000 active; in the data active = inhibition above about 30%; inconclusive = no clear call, values can overlap the other calls;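 also: 0% = vehicle wells and 100% = reference inhibitor control wells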
Target sequence (P9WHJ3 whole entry, looked up, canonical isoform): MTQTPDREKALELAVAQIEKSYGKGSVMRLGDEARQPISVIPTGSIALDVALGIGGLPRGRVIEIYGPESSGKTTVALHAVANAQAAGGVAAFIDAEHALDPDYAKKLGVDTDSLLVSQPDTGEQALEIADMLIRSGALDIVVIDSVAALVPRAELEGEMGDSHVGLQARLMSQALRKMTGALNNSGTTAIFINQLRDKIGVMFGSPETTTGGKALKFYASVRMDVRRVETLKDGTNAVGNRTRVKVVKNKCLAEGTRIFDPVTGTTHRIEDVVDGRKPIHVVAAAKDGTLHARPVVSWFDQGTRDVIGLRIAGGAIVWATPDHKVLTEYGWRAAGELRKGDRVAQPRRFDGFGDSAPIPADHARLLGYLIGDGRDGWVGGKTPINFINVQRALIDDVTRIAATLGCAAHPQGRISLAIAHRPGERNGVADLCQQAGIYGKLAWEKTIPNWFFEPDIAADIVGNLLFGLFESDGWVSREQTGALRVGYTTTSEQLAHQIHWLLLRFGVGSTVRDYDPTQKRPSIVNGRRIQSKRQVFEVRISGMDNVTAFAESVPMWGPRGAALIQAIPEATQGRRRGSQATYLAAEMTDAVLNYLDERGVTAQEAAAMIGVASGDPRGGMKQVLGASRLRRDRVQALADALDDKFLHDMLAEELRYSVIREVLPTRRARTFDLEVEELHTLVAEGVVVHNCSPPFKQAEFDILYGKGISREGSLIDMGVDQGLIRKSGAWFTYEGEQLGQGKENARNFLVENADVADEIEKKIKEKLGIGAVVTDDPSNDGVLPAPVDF
Mtb betalactam: beta-lactam sensitization of Mtb H37Rv, H37Rv. M. tuberculosis H37Rv growth with meropenem, percent inhibition; hits of this screen are not shown here. inhibition, % at 25 µM. 0.27% of 330,000 active. AID 434955, 2010;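 active = about 74% or more and at least 40 points above the plate without the antibiotic, then above 30% in a dose series; inconclusive = first-round hits that could not be retested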;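 also: growth measured after seven days incubation then overnight dye step; 0% = bacteria only wells and 100% = bacteria with antibiotic; twin plates without the antibiotic show which effects depend on it; some results filed as inactive read as strong as hits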
Mtb growth: M. tuberculosis H37Rv growth inhibitors, H37Rv strain (AID 1626). M. tuberculosis H37Rv growth inhibition; higher % means a stronger effect. one-dose inhibition, % at 10 µM; IC50 in µM for titrated hits. 0.95% of 220,000 active;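 active = confirmed in a dose series; inconclusive = inhibition above 80% but not taken into the dose series; inactive = below 80% or under 30% at every dose of the series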;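 also: bacteria incubated seven days before Alamar blue readout; 0% = bacteria only wells and 100% = bacteria with antibiotic wells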
Arbovirus anti repeat: recorded beside Arbovirus anti, whose call it bears; inhibition, %; measured here: 10K subset replicate screen; many hits read low in the repeat;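 first of two repeat runs on a subset; 0% = infected and 100% = uninfected wells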
Numbers without * were called inactive; ? = inconclusive; nt = no result given.

SMILES	Arbovirus anti	YopH inh	RecA splice inh	Mtb betalactam	Mtb growth	others
O=C(Nc1nnc(Cc2ccccc2)s1)c1cccnc1	-18	nt	0.2	5	-1%
O=C(CCC1CCCC1)N1CCN(C2CCCC2)CC1	2	-21	3.1	-7	8%
CCCCC(=O)Nc1c2c(nn1-c1ccc(C)cc1)CS(=O)(=O)C2	nt	nt	1.4	3	nt
COc1ccc(CN2CCNC(=O)C2CC(=O)NCCC2=CCCCC2)cc1OC (stereo not given)	3	nt	-0.5	0	-6%
Cc1ccccc1-c1nc(CN2CCSCC2)c(C)o1	1	nt	-1.3	0	1%
CC1CCc2c(sc(NC(=O)COC(=O)c3ccccc3NCc3ccco3)c2C#N)C1 (stereo not given)	-4	-10	-5.2	-20	-8%
Cc1nnc(SCC(=O)NCC2CCCCC2)n(N)c1=O	7	21	-0.8	-24	1%
O=C(COC(=O)CN1C(=O)c2ccccc2C1=O)NC1CCCC1	nt	nt	-0.3	4	nt
NC(N)=NS(=O)(=O)c1ccc(N)cc1	-1	-44	-3.5	nt	-3%
Cc1cc(NC(=O)COC(=O)c2ccco2)no1	1	nt	0.7	3	-1%

In the list so far, two have a furan ring, fused or not.
SMILES	Arbovirus anti	YopH inh	RecA splice inh	Mtb betalactam	Mtb growth	others
CC1CCc2c(sc(NC(=O)COC(=O)c3ccccc3NCc3ccco3)c2C#N)C1 (stereo not given)	-4	-10	-5.2	-20	-8%
Cc1cc(NC(=O)COC(=O)c2ccco2)no1	1	nt	0.7	3	-1%

Next section:
SMILES	Arbovirus anti	YopH inh	RecA splice inh	Mtb betalactam	Mtb growth	others
Cc1ccc(OCCC(=O)OCC(=O)NC(=O)NCc2ccccc2)cc1	nt	nt	-0.1	7	nt
Cc1ccc(S(=O)(=O)N2CCN(C(=O)CCn3cncn3)CC2)cc1	nt	nt	2.0	?	nt
CCCNC(=O)Nc1cccc(NC(C)=O)c1	nt	nt	0.1	-11	-16%
O=C1CC(NS(=O)(=O)c2ccc([N+](=O)[O-])cc2)CN1c1cccc(F)c1 (stereo not given)	nt	nt	-2.9	1	nt
COc1cccc(NC(=O)COC(=O)c2cc(S(=O)(=O)N3CCOCC3)ccc2C)c1	-5	2	1.8	-4	-2%
CCOc1c(Cl)cc(/C=N/O)cc1OC	11	-12	-3.0	1	8%
O=C(c1cc2c(s1)CCCC2)N1CCN(Cc2ccc3c(c2)OCO3)CC1	-15	-1	5.9	93	?
COc1ccccc1OCc1ccc(C(=O)NCC(C)C)o1	-5	nt	-5.1	4	8%
Cc1cc(OCc2nn[nH]n2)c2c(-c3ccccc3)cc(=O)oc2c1	-5	-23	0.1	-4	-9%
O=C(O)CCCC(=O)NNC(=O)c1cccc(Br)c1	8	nt	-2.9	2	1%

Grouped by structure: the compounds so far containing a halogen (three)
SMILES	Arbovirus anti	YopH inh	RecA splice inh	Mtb betalactam	Mtb growth	others
O=C1CC(NS(=O)(=O)c2ccc([N+](=O)[O-])cc2)CN1c1cccc(F)c1 (stereo not given)	nt	nt	-2.9	1	nt
CCOc1c(Cl)cc(/C=N/O)cc1OC	11	-12	-3.0	1	8%
O=C(O)CCCC(=O)NNC(=O)c1cccc(Br)c1	8	nt	-2.9	2	1%

Back to the main list, repeating the 2 entries before the break.
SMILES	Arbovirus anti	YopH inh	RecA splice inh	Mtb betalactam	Mtb growth	others
Cc1cc(OCc2nn[nH]n2)c2c(-c3ccccc3)cc(=O)oc2c1	-5	-23	0.1	-4	-9%
O=C(O)CCCC(=O)NNC(=O)c1cccc(Br)c1	8	nt	-2.9	2	1%
Cc1ccc(NC(=O)CN2CCCCC2)c2c1CC(C)(C)O2	-4	nt	4.1	-2	-2%
COc1cc(/C=N/NC(=O)CC(=O)NC2CCCCC2)ccc1O	nt	nt	-4.8	-3	nt
CCOC(=O)CCNC(=O)c1ccc2nc(C3CCCCC3)oc2c1	nt	nt	0.0	36	nt
Cc1ccc(N/N=C(\C#N)C(=N)N2CCCCCC2)cc1	-2	nt	nt	-4	7%
COC(=O)C1CN(C(=O)COc2cc(C)cc(C)c2)c2ccccc2O1 (stereo not given)	nt	nt	-6.6	12	nt
CCC/S(CC1CC1(Cl)Cl)=N\S(=O)(=O)c1ccc(C)cc1 (stereo not given)	4	-4	0.7	1	2%
Cc1ccc2c(c1)N(CC(=O)NCCCc1ccccc1)C(=O)c1cccnc1O2	nt	nt	0.5	?	nt
CCCn1c(-c2cc(OC)c(OC)c(OC)c2)nc2nc3ccccc3nc21	-9	-15	0.7	-9	-1%
CCCn1c(C(C)Nc2nc(-c3ccc(Cl)c([N+](=O)[O-])c3)cs2)nc2cc(Cl)c(N3CCCCC3)cc21 (stereo not given)	nt	nt	3.5	1	nt
C=CCNC(=O)C1CC(=O)N(c2ccc(C)cc2)C1 (stereo not given)	-5	nt	8.1	6	-5%	Arbovirus anti repeat=-1
CCCCNC(=O)NS(=O)(=O)c1ccc(NC(=O)C(NC(N)=O)C(C)CC)cc1 (stereo not given)	nt	nt	-0.2	-5	-10%
COc1ccc(COC(=O)NNC(=O)c2ccc(OC)cc2)cc1	-8	-15	0.7	-4	3%
CSc1nncc(-c2ccc(F)cc2)n1	1	-19	2.1	16	2%
CCCCOc1ccc(-c2nnn(C(C)(C)C(=O)OC)n2)cc1	2	-30	3.8	92	1%
COC(=O)c1c(NC(=O)CN2CCC3(O)CCCCC3C2c2ccccc2OC)sc(C)c1C (stereo not given)	-13	-28	9.7	4	24%
COCc1nnc(NC(=O)c2ccc(S(=O)(=O)N(C)C3CCCCC3)cc2)o1	-8	-38	4.6	52	-8%
O=C(CNC(=O)c1ccncc1)N/N=C/c1cc(Br)ccc1OCc1ccccc1	nt	nt	0.7	6	7%
COc1ccccc1N=C(C)C1=C(O)CC(c2ccccc2)CC1=O (stereo not given)	-10	nt	-3.7	-4	3%
Cc1[nH]nc2c1C(c1ccccc1F)NC2=O (stereo not given)	0	-35	-2.1	3	3%	Arbovirus anti repeat=1
S=c1nc(COc2ccccc2)[nH]c2ccccc12	nt	nt	0.3	30	nt
Cc1cccc(NC(=O)CSCC(=O)N(CCC(C)C)c2c(N)n(Cc3ccccc3)c(=O)[nH]c2=O)c1	nt	nt	4.4	-7	nt
CN1CCN(S(=O)(=O)c2ccc(Cl)c3ccccc23)CC1	nt	nt	2.2	-8	nt
CC1CN=C(Nc2cccc3ccccc23)S1 (stereo not given)	-3	-35	-1.4	41	2%
COc1ccc(CCNc2cc(N3CCN(C(=O)c4ccccc4F)CC3)ccc2[N+](=O)[O-])cc1OC	3	-14	-1.1	8	nt
CCc1ccc(N(C(C)=O)c2nc(CCl)cs2)cc1	3	nt	nt	-3	-3%
CCOC(=O)CCc1c(C)c(C#N)c2[nH]c3ccccc3n2c1=O	8	-24	-6.8	100	?
COc1ccc(C2=NS(=O)(=O)N(C)C(C(=O)Nc3cc(OC)c(OC)c(OC)c3)=C2)cc1	nt	nt	3.5	-2	nt
CCOc1ccccc1C1N(c2ccc(F)cc2)C(=O)C2CCCN21 (stereo not given)	-3	-19	-5.4	-4	0%
CC(NS(=O)(=O)c1ccccc1)C1CC2CCC1C2 (stereo not given)	nt	nt	2.1	2	nt
COc1ccc(OC)c(S(=O)(=O)N2CCC(C(=O)N3CCc4ccccc4C3)CC2)c1	1	17	3.7	-8	-3%
Nc1c(-c2ccccn2)cnn1-c1nc(-c2ccc(F)cc2)cs1	-19	nt	2.7	9	9%
CC(C)(C)c1ccc(C(=O)Nc2cccc(C(=O)N3CCOCC3)c2)cc1	nt	nt	1.3	-4	nt
Nc1ccc2oc3ccccc3c2c1	5	-9	4.3	3	?
Cc1ccccc1C(=O)NNC1CC(=O)N(c2ccc3c(c2)OCCO3)C1=O (stereo not given)	0	-33	1.2	1	-10%
Nc1cc(=O)nc(SCC(=O)Nc2ccccc2)n1-c1ccccc1	1	-16	2.4	3	-5%
O=C(CN1CCN(c2cccc(C(F)(F)F)c2)CC1)NCc1ccccc1	nt	nt	1.8	-5	nt
COc1ccccc1N1CCN(c2ccc3cc(S(=O)(=O)N4CCCCC4)ccc3n2)CC1	nt	nt	5.2	-1	nt
O=C(O)CCCn1cc(NC(=O)c2ccc(Br)o2)cn1	9	nt	nt	-3	-8%
CCOC(=O)C1=C(COC(=O)CNC(=O)c2ccc(C(C)(C)C)cc2)NC(=O)NC1C (stereo not given)	nt	nt	0.7	-3	nt
COC(=O)CNc1nc(Cl)nc(NC2CCCCC2)n1	nt	nt	0.2	-1	nt

Sorted by molar mass (ascending): part of the list above.
SMILES	Arbovirus anti	YopH inh	RecA splice inh	Mtb betalactam	Mtb growth	others
O=C(CCC1CCCC1)N1CCN(C2CCCC2)CC1	2	-21	3.1	-7	8%
O=C(O)CCCC(=O)NNC(=O)c1cccc(Br)c1	8	nt	-2.9	2	1%
CCOC(=O)CCNC(=O)c1ccc2nc(C3CCCCC3)oc2c1	nt	nt	0.0	36	nt

Further records:
SMILES	Arbovirus anti	YopH inh	RecA splice inh	Mtb betalactam	Mtb growth	others
CCCN1Cc2cccc(C(=O)NCCc3cccc(C)c3)c2C1=O	nt	nt	1.8	-5	nt
CCOC(=O)c1cccc(NC(=O)CNC(=O)C2CCCCC2)c1	-4	-2	-0.8	5	-13%	Arbovirus anti repeat=-4
CC1(C)CC(=O)C(C=NCc2ccccn2)=C(O)C1	0	-43	2.0	3	1%
COc1ccccc1NC(=O)C1CCCN(C(=O)NCc2ccccc2)C1 (stereo not given)	nt	nt	0.2	-9	nt
CCC1C(=O)Nc2ccccc2N1C(=O)c1ccc(Cl)nc1 (stereo not given)	3	nt	-0.6	4	2%
O=C(O)CCc1nc2cc(Cl)ccc2n(Cc2ccccc2)c1=O	2	nt	7.1	-9	-2%
Fc1ccc(NC(=S)Nc2nccs2)cc1	5	nt	-0.4	96	?
CCOc1ccccc1N(C(=O)c1snc(C(N)=O)c1N)C(C(=O)NCC1CCCO1)c1ccc2ncccc2c1 (stereo not given)	nt	nt	-2.0	4	nt
CN(CC(=O)Nc1ccc(Cl)cc1)C(=O)CCC1CCCC1	nt	nt	-1.2	-8	nt
O=[N+]([O-])c1ccc(O)c(CSc2nnnn2-c2ccccc2)c1	nt	nt	2.1	5	nt
CC1CC(=O)N(CC(=O)Nc2ccc3c(c2)OCO3)c2ccccc2S1 (stereo not given)	2	-27	3.9	-10	2%
CC(C)(C)OC(=O)N1Cc2ccccc2C[C@H]1C(=O)NCC(=O)NCC1CCCO1 (stereo not given in full)	nt	nt	-1.1	-5	nt
COC/C=C/C1=CC2=CC(=O)C(C)(OC(=O)c3cnc4ccccc4n3)C(=O)C2=CN1c1cccc(C#N)c1 (stereo not given)	nt	nt	1.1	10	-7%
O=C(Nc1c(C(=O)N2CCCCC2)cnn1-c1ccccc1)c1ccccc1	4	-35	-0.9	-4	3%	Arbovirus anti repeat=7
CC(C)OP(=O)(OC(C)C)C(O)c1ccc2c(c1)OCO2 (stereo not given)	4	-8	0.6	-3	-1%
O=C(Nc1ccccc1)N(O)c1ccc(Cl)cc1	5	26	1.1	67	6%
COc1ccc(NC(=O)c2nc(C)c(C3(C)CC(c4ccccc4)=NO3)s2)cc1 (stereo not given)	nt	nt	1.6	80	3%
CSc1ccccc1NC(=O)Nc1ccccc1Cl	nt	nt	-2.5	-9	7%
COC(=O)c1ccc(C(=S)NCC2(N(C)C)CCCCC2)cc1	nt	nt	-0.2	0	nt
COc1cccc(NC(=O)c2cnn(-c3ccccc3)c2C)c1	nt	nt	-0.8	-1	nt
CCOC(=O)Cn1c(-c2ccc(OC)cc2)c(-c2ccc(OC)cc2)nnc1=O	nt	nt	2.7	2	nt
O=C(NCCc1ccc2c(c1)OCCO2)c1ccccc1F	7	-13	0.6	2	22%
CC(C)(C)C1=Nn2c(nnc2-c2n[nH]c3c2CCC3)SC1	12	-44	nt	-4	2%
O=C1OCc2cc(NC(=O)C3CCCO3)ccc21 (stereo not given)	-2	-11	0.2	-1	-1%
Clc1ccc(Nc2nc(C3CC3)cs2)cc1	-1	4	8.2	0	nt
O=C(NC1CCCCC1)c1cc(-c2cccc(Cl)c2)on1	nt	nt	3.0	-2	nt

Screening results from PubChem BioAssay.

These rows are one share of the data, so the mix of outcomes need not match the whole.
